# Methyltransferases: Primary Screen for Target Class Profiling of Small Molecule Inhibitors of Methyltransferases; calls only at 40 µM; purified enzyme, MTase-Glo SAH luminescence; hits give low values; 3.9% of 25,000 active; active = -50% or lower on at least one of six enzymes; inconclusive = the cases between; inactive = as a rule above -30% on all six;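 also: enzymes were COMT GAMT GNMT HNMT NNMT and PNMT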
#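 Each enzyme was reacted with SAM and its substrate, with compounds tested once at 40 uM; SAH formed was read by MTase-Glo luminescence.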
# Calls only; i = inactive; ? = inconclusive; + = active, no number. % is scaled to controls: 0 for no effect and ±100 for the full control effect. A portion of the library. The share of hits here may be higher or lower than overall.
Molecule | Methyltransferases
Cc1ccccc1NC(=O)CSc1nnc2n(CC(C)C)c(=O)c3ccccc3n12 | i
CCOCCCN1C(=O)c2cc(-c3ccc(OC)cc3)nn2CC1(C)C(=O)NC1CCCCC1 (stereo not drawn) | i
CC(C)CNC(=O)c1ccc2nnc(C(C)(C)C)n2c1 | i
COc1ccc(Cn2c(=O)c3ccccc3n3c(-c4ccc(OC)c(OC)c4)nnc23)cc1 | i
COc1cc(NC(=O)Cn2nc3n(CC(C)C)c(=O)c4ccccc4n3c2=O)cc(OC)c1 | i
O=C(Nc1ccc(-c2ccnc(Nc3ccc(N4CCOCC4)cc3)n2)cc1)C1CCCN1 (stereo not drawn) | ?
Cc1ccc(CNC(=O)C2(C)Cn3nc(C(=O)NCc4ccccc4C)cc3C(=O)N2C)cc1 (stereo not drawn) | i
Oc1ccc2ccccc2c1SSc1c(O)ccc2ccccc12 | +
CCCS(=O)(=O)N1CCc2nn(CC3CC3)c(=O)n2CC1 | i
CN(C)C(=O)c1nc2sccn2c1-c1ccc(C(F)(F)F)cc1 | i
CCCn1c(=O)c2ccccc2n2c(=O)n(CC(=O)c3cc(C)ccc3C)nc12 | ?
CCCC1c2ccc(C)n2CCN1C(=O)NCc1ccc(F)cc1 (stereo not drawn) | i
CC(C(=O)NCc1ccccc1)n1ccc2cc(S(=O)(=O)N3CCCC3)ccc21 (stereo not drawn) | i
CC1(C(=O)NC2CCCCC2)Cn2c(cc3occc32)C(=O)N1CCc1ccc(Cl)cc1 (stereo not drawn) | i
O=C(C1CC1)N(C1CCOCC1)C1CCN(S(=O)(=O)C2CC2)CC1 | i

# Quoted at random: 3 compounds from above.
Molecule | Methyltransferases
COc1cc(NC(=O)Cn2nc3n(CC(C)C)c(=O)c4ccccc4n3c2=O)cc(OC)c1 | i
Oc1ccc2ccccc2c1SSc1c(O)ccc2ccccc12 | +
O=C(C1CC1)N(C1CCOCC1)C1CCN(S(=O)(=O)C2CC2)CC1 | i

# By substructure, the entries above with a halogen.
Molecule | Methyltransferases
CN(C)C(=O)c1nc2sccn2c1-c1ccc(C(F)(F)F)cc1 | i
CCCC1c2ccc(C)n2CCN1C(=O)NCc1ccc(F)cc1 (stereo not drawn) | i
CC1(C(=O)NC2CCCCC2)Cn2c(cc3occc32)C(=O)N1CCc1ccc(Cl)cc1 (stereo not drawn) | i

# Remaining list, next part:
Molecule | Methyltransferases
CN(Cc1ccc(C(=O)O)cc1)c1ccc(OCc2c(-c3c(Cl)cccc3Cl)noc2C2CC2)nc1C(F)(F)F | +
Cc1ccccc1Cn1nc2n(CC(C)C)c(=O)c3ccccc3n2c1=O | i
Cc1cccc(C(C(=O)N2CCN(Cc3noc(C)n3)CC2)N(C)C)c1 (stereo not drawn) | i
CN(Cc1ccccc1)C(=O)c1cc2n(n1)CC(C)(C(=O)NC1CCCCCC1)N(C)C2=O (stereo not drawn) | i
Cn1cccc1C(=O)NC1CCN(C(=O)N2CC3CC(C2)[C@H]2CCCC(=O)N2C3)CC1 (stereo partly drawn) | i
Cc1ccc(NS(=O)(=O)c2ccc3[nH]c(=O)[nH]c3c2)cc1Cl | i
CSc1ccc(CCN2C(=O)Cn3cccc3C2C(=O)NC2CCC(C)CC2)cc1 (stereo not drawn) | i
O=C(c1cc[n+]([O-])cc1)N1CCC2(CCCN(CCC3CCCCC3)C2)C1 (stereo not drawn) | i
CCOC(=O)CSc1nc2c(sc3ccccc32)c(=O)n1CCCN1CCCC1 | i
Nc1nc(N)c2nc(-c3ccccc3)c(N)nc2n1 | i
CC(C)(C)c1onc(OCP(=O)(O)O)c1CC(N)C(=O)O (stereo not drawn) | i
CC(=O)/C=C/[C@H]1[C@](C)(O)[C@@H](O)[C@H](O)C2C(C)(C)CCC[C@@]21C (stereo partly drawn) | i
NC(=O)c1nc(Nc2ccccc2)sc1NC(=O)C1CCCCC1 | i
COc1ccc(-c2n[nH]n3c2nc(=O)c2ccc(C(=O)NCc4ccc(C(C)C)cc4)cc23)cc1 | i
COc1ccc(CNC(=O)c2cnc3c(c2)N(C(=O)CCc2ccccc2)CCC3)cc1OC | i

Molecule | Methyltransferases
CCCCC(=O)N(c1ccc(OC)cc1)S(=O)(=O)c1ccc2c(c1)n(C)c(=O)n2C | i
CC(C)CCN1C(=O)c2ccc(-c3ccco3)n2CC1(C)C(=O)NC1CCCCCC1 (stereo not drawn) | i
N#Cc1cccc(-c2ccnc(N[C@H]3CO[C@H]4[C@@H]3OC[C@H]4OC(=O)NC3CCCCC3)n2)c1 | i
CN1C(=O)c2cc(C(=O)NCc3cccnc3)nn2CC1(C)C(=O)NC1CCCCCC1 (stereo not drawn) | i
CC1=NS(=O)(=O)N(C)C=C1C(=O)OCc1nc(-c2cccc(C)c2)no1 | i
COc1ccc(N(C(=O)c2ccc(Cl)cc2)S(=O)(=O)c2ccc3c(c2)n(C)c(=O)n3C)cc1 | i
COc1cc(CNC(=O)CCCC/C=C/C(C)C)ccc1O | i
Cn1c(=O)n(C)c2cc(S(=O)(=O)N3CCN(c4ccccc4)CC3)ccc21 | i
CC1CCCC(NC(=O)C2(C)Cn3c(cc4sccc43)C(=O)N2Cc2ccccc2)C1C (stereo not drawn) | i
CCOC(=O)c1cc2n(n1)CC(C)(C(=O)NC1CCC(C)CC1)N(c1cccc(Cl)c1C)C2=O (stereo not drawn) | i
Cn1nccc1CN1CCC2(C1)C(=O)Nc1ccccc12 (stereo not drawn) | i
Cc1nnc2n1CCC(N(C)C(=O)CCc1ccccc1)CC2 (stereo not drawn) | i
O=C(CCc1nnc2n(Cc3ccccc3)c(=O)c3ccccc3n12)N1CCN(c2ccccc2)CC1 | i
COc1ccc(N2CCN(C(=O)CCCc3nnc4n5nc(C)nc5c5ccccc5n34)CC2)cc1 | i
CCCn1c(=O)c2ccc(C(=O)NCC(C)C)cc2n2c(=O)n(Cc3cccc(OC)c3)nc12 | i

Molecule | Methyltransferases
CCCC1=Nc2cc(C(=O)NCCCN3CCCCC3CC)ccc2Sc2ccc(C)cc21 (stereo not drawn) | +
CCc1ccc(N2C(=O)c3cc4occc4n3CC2(C)C(=O)NC2CCCCC2C)cc1 (stereo not drawn) | i
Cc1nc(N2CCCCCC2)ncc1C(=O)O | i
CCCn1c(=O)c2ccc(C(=O)NC(C)CC)cc2n2c(SCC(=O)Nc3cccc(F)c3)nnc12 (stereo not drawn) | i
Cc1ccccc1N1C(=O)c2cc3ccccc3n2CC1(C)C(=O)NC1CCCC1 (stereo not drawn) | i
CCn1c(CN2CCN(c3nc4ccccc4s3)CC2)nnc1C1CC(N)C1 (stereo not drawn) | i
CC1(C)CC[C@]2(C(=O)O)[C@H](O)C[C@]3(C)C(=CCC4[C@@]5(C)CC[C@H](O[C@@H]6O[C@H](CO[C@@H]7OC[C@H](O)[C@H](O)[C@H]7O[C@@H]7OC[C@H](O)[C@H](O)[C@H]7O)[C@@H](O)[C@H](O)[C@H]6O)C(C)(C)C5CC[C@]43C)[C@@H]2C1 (stereo partly drawn) | i
COCC[C@]1(O)CCN(C(=O)Nc2ccc(F)c(C(F)(F)F)c2)C[C@H]1C | i
CCc1ccc(N2C(=O)c3cc(-c4ccco4)nn3CC2(C)C(=O)NC2CCCCC2)cc1 (stereo not drawn) | i
COCCN1C(=O)c2cc(-c3ccccc3)nn2CC1(C)C(=O)NCc1ccccc1 (stereo not drawn) | i
OC[C@@H]1CNC[C@H]1c1nc(-c2ccncc2)no1 | i
COc1ccc(NC(=O)CSc2nnc3n(CC(C)C)c(=O)c4ccc(Cl)cc4n23)cc1 | i
C=C(CO[C@@H]1O[C@H](CO[C@@H]2OC[C@](O)(CO)[C@H]2O)[C@@H](O)[C@H](O)[C@H]1O)C1Cc2cc(C(C)=O)ccc2O1 (stereo partly drawn) | i
COc1ccc(CCNC(=O)CCc2nnc3n(Cc4ccc(F)cc4)c(=O)c4ccccc4n23)cc1OC | i
O=[S+]1([O-])NC2(CCN(Cc3ccc(F)cc3)CC2)CNc2ccccc21 | i

Molecule | Methyltransferases
Cn1nc(C2CCN(C(=O)NCc3ccccc3)CC2)c2c1CCOC2 | i
COCc1nnc2n1CCC(NC(=O)Cn1nc(C(F)(F)F)cc1C)CC2 (stereo not drawn) | i
Cc1ccc(Cn2c(=O)c3ccc(C(=O)NC(C)C)cc3n3c(=O)n(C)nc23)cc1 | i
Cc1nnc(C[C@@H]2C=C(c3ccc(Cl)cc3)c3ccccc3-n3c(C)nnc32)o1 | +
OCCC1CN(c2nccc(-c3ccccn3)n2)CCN1Cc1ccoc1 (stereo not drawn) | i
O=C(NCC1CCCCC1)c1cc(-c2cc(Cl)cc(Cl)c2)c2nncn2n1 | i
CC(C)c1nccn1CCCNC(=O)c1ccc(-c2cccc(F)c2)nc1 | +
Cc1cccc(NC(=O)Cn2nc3n(C)c(=O)c4ccc(C(=O)NC5CCCC5)cc4n3c2=O)c1 | i
CCOc1ccc(CN2C(=O)c3cc4occc4n3CC2(C)C(=O)NC2CCCCCCC2)cc1 (stereo not drawn) | i
COc1ccc2cc3n(c2c1)CC(C)(C(=O)NC1CCCC1)N(c1ccc(C)cc1)C3=O (stereo not drawn) | i
COc1cccc(C2c3cccn3-c3sc4c(c3CN2C(=O)Nc2ccc(C)c(F)c2)CCCC4)c1 (stereo not drawn) | i
FC(F)(F)c1cc(-c2ncn(/C=C\c3nnco3)n2)cc(C(F)(F)F)c1 | i
Cn1c(=O)n(C)c2cc(S(=O)(=O)Nc3ccc(Cl)cc3)ccc21 | i
CCNC(=O)c1cc2n(n1)CC(C)(C(=O)NCc1ccc(F)cc1)N(C)C2=O (stereo not drawn) | i
Nc1ncnc2c1ncn2[C@@H]1O[C@H](COP(=O)(O)CP(=O)(O)OP(=O)(O)O)[C@@H](O)[C@H]1O | i

Molecule | Methyltransferases
COc1c2c(c(C)c3c1C(=O)OC3)OC1(C)CC(O)C3(O)C(C)(C)OC(=O)CCC3(C)C1C2 (stereo not drawn) | i
CCOC(=O)c1cc2n(n1)CC(C)(C(=O)NC1CCCCC1)N(c1cc(Cl)ccc1C)C2=O (stereo not drawn) | i
Cc1ccc(Cn2c(=O)c3ccccc3n3c(SCC(=O)Nc4cc(C)cc(C)c4)nnc23)cc1 | i
O=C(C1CCCC1)N1CCC(C(=O)N2CCC(c3nc4ccncc4[nH]3)C2)CC1 (stereo not drawn) | i
COC(=O)CC[C@H](NC(=O)[C@H](CC(C)C)NC(=O)OCc1ccccc1)C(=O)N[C@@H](Cc1cnc[nH]1)C(=O)N[C@@H](CC(=O)OC)C(=O)CF | i
CC(=O)Oc1ccccc1C(=O)O | i
CCCn1c(=O)c2cc(Cl)ccc2n2c(SCc3ccc(F)cc3)nnc12 | i
CCOC(=O)c1cc2n(n1)CC(C)(C(=O)NC1CCCCCC1)N(c1ccc(C)c(F)c1)C2=O (stereo not drawn) | i
CC1(C)CCC(C)(C)c2cc([C@@H](O)C(=O)Nc3ccc(C(=O)O)cc3F)ccc21 | i
CC(C)C[C@@H](C(=O)N[C@@H](Cc1ccc(OCc2ccccc2)cc1)C(=O)NC(C)(C)C)N(C)Cc1ccc(C(C)(C)C)cc1 | ?
Cc1sc2cc(C(=O)NC(C)C)[nH]c2c1CN1CCCCC1 | i
CC(C)CCn1c(=O)c2ccccc2n2c(=O)n(CC(=O)NC3CCCCC3)nc12 | i
COc1ccc(-n2c(=O)[nH]c3cccnc32)cc1OC | i
O=C(O)c1ccc(CN2C[C@@H]3OCC(=O)N(c4ccccc4)[C@@H]3C2)cc1 | i
COCCCNC(=O)N1Cc2c(sc3c2CCCC3)-n2cccc2C1c1cccc(C)c1 (stereo not drawn) | i

Molecule | Methyltransferases
O=C1Nc2ccccc2CC12CCCN2C1COC1 (stereo not drawn) | i
O=C1NCC2(CCCN(C(=O)CCc3nc4ccccc4[nH]c3=O)C2)O1 (stereo not drawn) | i
O=C(Nc1ccc2c(N3CCCC3)ncnc2c1)c1cc(F)ccc1Cl | +
O=C(c1ccc2c(=O)nc3c(-c4ccccc4)n[nH]n3c2c1)N1CCN(c2ccccc2F)CC1 | i
CC1CCC(NC(=O)C2(C)Cn3c(ccc3-c3ccco3)C(=O)N2CCCc2ccccc2)CC1 (stereo not drawn) | i
O=C(c1cccc(OC2CN(CC3CC=CCC3)C2)c1)N1CCCC1 (stereo not drawn) | i
Cc1cc(C)c(S(=O)(=O)NCCn2c(-c3ccccc3)nc3ccccc32)cc1C | i
CN(C)S(=O)(=O)c1ccc(NC(=S)N2CCC(C(O)(c3ccccc3)c3ccccc3)CC2)cc1 | i
C[C@@H]1O[C@@H](O[C@H]2[C@@H]3C=CO[C@@H](O[C@@H]4O[C@H](CO)[C@@H](O)[C@H](O)[C@H]4O)[C@@H]3[C@@]3(CO)O[C@@H]23)[C@H](O)[C@H](O)[C@H]1OC(=O)/C=C/c1ccc(O)cc1 | i
CC1(C(=O)NC2CCCCCC2)Cn2c(cc3occc32)C(=O)N1Cc1ccc(Cl)cc1 (stereo not drawn) | i
CC1(C(=O)NCc2ccc(F)cc2)Cn2cnc(C(=O)NCc3ccc(Cl)cc3)c2C(=O)N1C1CC1 (stereo not drawn) | i
COc1ccc(N2C(=O)c3cc(-c4ccccc4)nn3CC2(C)C(=O)NCc2ccccc2OC)cc1 (stereo not drawn) | i
CC1CCc2c(sc3nc(-c4cc5ccccc5oc4=O)nc(Cl)c23)C1 (stereo not drawn) | ?
CC(C)N1C(=O)C2(CCCC2)C1C(=O)Nc1ccncc1 (stereo not drawn) | i
CCC(C)NC(=O)c1ccc2c(=O)n(C)c3nn(CC(=O)Nc4cccc(F)c4)c(=O)n3c2c1 (stereo not drawn) | i
CCCn1c(=O)c2cc(Cl)ccc2n2c(SCC(=O)Nc3ccc(C(C)C)cc3)nnc12 | i
